SMN2 splice enh: enhancers of SMN2 splice variant expression | HEK293 SMN2-luciferase splicing reporter, luminescence, 30-36 h | 210,000 compounds, 2.8% hits | Potency, µM (top dose mostly 46.1 µM), without a hit: top-dose activity change, positive = activation, hits mostly activators; also: % of control where 0% means no effect; nearly all actives have a fitted effect of over 55% in size
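qHTS luciferase splicing reporter: luminescence rises when SMN2 exon 7 is included in transfected HEK293 cells. Compound exposure lasted 30-36 h at 37C, with 4.5 mM final sodium butyrate as control, followed by a ONE-Glo read.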
KinaseGlo FLuc: Kinase-Glo luciferase inhibition (counter-screen). Q27757. Potency, µM (series often up to 38.3 µM), for the others: at the top dose activity change, negative = inhibition, most hits filed as inhibitors. Kinase-Glo luciferase, ATP luminescence, 8 min. AID 1379. 200,000 compounds, 0.28% hits; also: % is scaled to controls: 0 for no effect and ±100 for the full control effect; nearly all actives have a fitted effect of over 60% in size
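Recombinant Kinase-Glo luciferase, 10 uM ATP (linear range), luciferin; imidazole pH 7.2 / KCl / MgCl2 / Tween / BSA buffer; 8 min RT; luminescence.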
Tau ThT inhib: blocks human tau fibril formation measured by thioflavin T; P10636; recombinant tau K18 P301L (four-repeat tau fragment), heparin-induced fibrillization, ThT fluorescence; Potency, µM (doses to about 57.4 µM), for inactives: at the top dose activity, negative = inhibition, most hits filed as inhibitors; 270,000 compounds, 2.1% hits; AID 1460; also: % is scaled to controls: 0 for no effect and ±100 for the full control effect; nearly all actives have a fitted effect of over 55% in size
Target sequence (P10636 561-689 P618L limits assumed): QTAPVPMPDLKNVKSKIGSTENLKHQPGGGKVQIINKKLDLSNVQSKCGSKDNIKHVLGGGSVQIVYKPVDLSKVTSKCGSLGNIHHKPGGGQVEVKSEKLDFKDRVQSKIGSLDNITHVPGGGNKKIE
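Aggregation was driven by heparin (20 uM final) acting on recombinant tau […] bearing P301L in 100 mM sodium acetate pH 7; fibrils were detected with Thioflavin T.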
L3MBTL1 block: L3MBTL1 (human) inhibition. Q9Y468. AlphaScreen L3MBTL1–H3K9me1 peptide binding. Potency, µM (doses to about 57.1 µM), for inactives: at the highest dose activity, negative = inhibition, usual class: inhibitors. 230,000 compounds, 0.66% hits; also: % is scaled to controls: 0 for no effect and ±100 for the full control effect; nearly all actives have a fitted effect of over 60% in size
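AlphaScreen proximity signal between nickel-chelate acceptor and streptavidin donor beads (final 10 ug/mL) reports binding of 50 nM L3MBTL1 to 75 nM biotin-H3 K9me1 peptide; complex incubated with compounds 30 min at room temperature; cefsulodin titration as control.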
ALDH1A1 block: ALDH1A1 (human) enzyme inhibition; Potency, µM (series often up to 75.3 µM), inactives show top-dose activity, negative = inhibition, most hits filed as inhibitors; Purified ALDH1A1, NADH fluorescence, propionaldehyde substrate; 220,000 compounds, 7.3% hits; AID 1030; active = well fitted inhibition curve with a large enough effect, not every such curve was filed as active; inconclusive = small, poorly fitted or top-dose-only effect, or another doubt; inactive = no such curve, though single readings can be large or run the other way;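 also: plate controls were no enzyme wells and a reference inhibitor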
LMNA splice mod: modulators of lamin A splicing; HeLa LMNA splicing GFP/RFP minigene ratio, 48 h; Potency, µM (top dose mostly 46.1 µM), for inactives: top-dose ratio change, negative = inhibition, most hits filed as inhibitors; 200,000 compounds, 0.01% hits; active = well fitted inhibition curve with a large enough effect in the signal ratio, with a control signal flat, not every such curve was filed as active; inconclusive = small, poorly fitted or top-dose-only effect, or effect the other way, or a change in a side signal; the % refers to the signal ratio; also: % is scaled to controls: 0 for no effect and ±100 for the full control effect
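S3 HeLa cells stably expressing lamin A-EGFP splicing minigene plus DsRed2, 600 cells/well, 48 h compound exposure at 37C. Laser-scanning cytometry; analysed as GFP (500-530 nm)/RFP (575-640 nm) total intensity ratio; 0.5% DMSO vehicle.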
RECQ1 helicase: RECQ1 (human) helicase inhibition | AID 2549 | Potency, µM (series often up to 57.3 µM), for the others: top-dose activity, negative = inhibition, usual class: inhibitors | P46063 | RECQ1 DNA unwinding, red fluorescence kinetic read | 240,000 compounds, 0.54% hits;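 also: plate controls were vehicle for no effect and no enzyme for full effect; nearly all actives have a fitted effect of over 30% in size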
Target sequence (P46063 whole entry, looked up): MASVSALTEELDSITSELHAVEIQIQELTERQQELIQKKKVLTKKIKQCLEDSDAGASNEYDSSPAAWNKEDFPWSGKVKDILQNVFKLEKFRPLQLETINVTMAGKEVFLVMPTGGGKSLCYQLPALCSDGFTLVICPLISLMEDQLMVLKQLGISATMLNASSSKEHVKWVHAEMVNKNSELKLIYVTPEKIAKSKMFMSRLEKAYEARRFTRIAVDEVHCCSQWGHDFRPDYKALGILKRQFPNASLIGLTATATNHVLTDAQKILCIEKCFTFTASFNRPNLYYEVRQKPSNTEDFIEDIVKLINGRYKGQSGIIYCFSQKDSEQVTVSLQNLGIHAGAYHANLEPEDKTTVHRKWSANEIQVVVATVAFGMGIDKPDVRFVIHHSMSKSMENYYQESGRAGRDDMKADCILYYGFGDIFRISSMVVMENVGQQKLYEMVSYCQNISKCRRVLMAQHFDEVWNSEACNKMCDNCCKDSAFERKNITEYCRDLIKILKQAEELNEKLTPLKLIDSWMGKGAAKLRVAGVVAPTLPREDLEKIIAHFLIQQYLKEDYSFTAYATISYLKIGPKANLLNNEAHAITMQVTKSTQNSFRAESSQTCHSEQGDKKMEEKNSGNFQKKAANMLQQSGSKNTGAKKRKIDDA
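50 nM RECQ1T1 preincubated 15 min with compound in Tris pH 8.0 buffer with MgCl2, DTT, Tween-20 and 2.5 ug/ml poly(dI-dC); started with 200 nM TAMRA/BHQ-2 forked duplex and 2 mM ATP. Unwinding read as fluorescence (525/598 nm), two reads 2 h apart.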
* = called active by the depositor; i = inactive; ? = inconclusive; · = not tested or not shown; & = joins results of further samples; [ ] = remark or other dose. Unless noted, calls follow the shape of the dose curve; as a rule, active = well fitted curve in the direction sought with a large enough effect; inconclusive = small, poorly fitted or top-dose-only effect, or another doubt; inactive = no such curve, though single readings can be large; an effect the other way counts as inactive or inconclusive. Potency is read from the fitted curve at half-maximal effect. Some of the compounds tested; the hit share may differ from the screen's.

SMILES	SMN2 splice enh	KinaseGlo FLuc	Tau ThT inhib	L3MBTL1 block	ALDH1A1 block	LMNA splice mod	RECQ1 helicase
CCC(C)c1ccccc1NC(=O)C(C)N(C)Cc1cccc(OC)c1 (configuration not stated)	-21.6%	4.4%	-8.6%	41.2%[activator]	?	?	i
CCCCn1c(=O)c(CCC(=O)OCC(=O)Nc2cccc3ccccc23)nc2ccccc21	11.7%	-0.1%	-5.9%	2.6%	?	8.7%	-4.0%
C=CCNC(=S)N/N=C/c1ccc(-c2ccc(OC)cc2)o1	-14.0%	-24.4%	?	-8.8%	?	-10.6%[46 µM]	i
CCOc1ccc(NS(=O)(=O)c2ccc3[nH]cc(C(=O)NCC4CCCO4)c(=O)c3c2)cc1 (configuration not stated)	1.1%&-2.7%	-1.0%	?	0.7%	?	9.7%	-7.0%
Cc1nn(-c2ccccc2)c2[nH]c(=O)c(CNCCN3CCOCC3)cc12	40.2%	1.1%	-6.1%	·	?	0.5%	3.1%
CCCn1nc(NS(C)(=O)=O)c2cc3cccc(C)c3nc21	·	·	-13.0%	3.0%	6.2%	-4.0%	-3.0%
Cc1ccc(/C(O)=C/c2nc3cc(C)ccc3oc2=O)cc1	·	·	-13.1%	3.4%	·	·	-11.1%
O=C(Nc1ccc2c(c1)OCCO2)NC1(C(F)(F)F)Oc2ccccc2O1	-11.8%	-2.1%	?	·	?	-9.8%	i
OC(CNC1CCCc2ccccc21)COc1c(Cl)cccc1Cl (configuration not stated)	-6.3%	2.2%	-3.9%	3.2%	?	?	i
O=C(COC(=O)C1=Cc2ccccc2OC1)NCc1ccco1	·	1.4%	-14.9%	-6.6%	-11.2%	·	-14.6%
CCN1CCN(CCOc2ccccc2-c2ccccc2)CC1	-11.6%	-4.4%	-1.5%	-5.1%	?	8.2%[46 µM]	21.7%
O=C(O)CC1=C(O)C(=O)N(c2ccccc2)C1c1ccccc1 (configuration not stated)	9.7%	3.8%	-3.6%	-14.4%	6.31µM*	7.7%	13.7%
C=CCN(Cc1nc(-c2ccc(OC)c(OC)c2)oc1C)C1CCS(=O)(=O)C1 (configuration not stated)	·	-2.9%	-9.3%	5.1%	?	6.1%[46 µM]	-3.1%
CN1CCc2cc3c(cc2C(=O)Cc2ccc4c(c2C1)OCO4)OCO3	·	1.8%	-19.2%	·	-1.7%	·	18.6%
CN(c1ccccc1)S(=O)(=O)c1ccc(C(=O)OCC(=O)NC(N)=O)cc1	·	·	-1.0%	·	·	·	13.4%
c1ccc2c(c1)CCCN2Cc1nnnn1C1CCCC1	·	-1.6%	-6.2%	·	-5.3%	9.7%	-15.0%
O=C(CS(=O)(=O)Cc1ccccc1)Nc1nc2c(s1)CCCC2	5.6%	-0.5%	-6.3%	·	?	-9.8%	0.5%
Cc1cc(C)c(S(=O)(=O)Nc2ccccc2C(F)(F)F)c(C)c1	·	-0.8%	-15.0%	·	15.4%	·	-11.6%
CCCC1(C(=O)OC)C=C2C(=C(c3ccccc3)C(=O)C2C)CN1 (configuration not stated)	-13.7%	-1.6%	?	·	?	·	-4.9%
CCOC(=O)c1c(NC(=O)CCNCc2ccco2)sc2c1CCC2	·	·	·	·	·	·	-7.7%
Cc1[nH]n2c(=O)c3c(nc2c1-c1ccccc1)CCCC3	-28.9%	-2.5%	-3.5%	-0.3%	7.9%	0.0%	-1.9%
COC(=O)N/N=C/c1c(C)c(C(=O)c2ccc(F)cc2)n2ccccc12	-37.7%[inhibitor]	0.2%	?	0.8%	?	?	-1.1%
Cc1ccc(C(=O)N/N=C\c2ccc([N+](=O)[O-])o2)cn1	·	·	?	-2.7%	?	·	i
COc1ccc(S(=O)(=O)N2CCCCCC2)cc1C(=O)OCC(=O)NC(C)(C)C	13.6%	2.0%	-3.2%	-1.0%	-5.3%	?	-12.7%
O=C(Nc1nccs1)c1cn2ccccc2n1	·	·	-15.7%	6.8%	·	·	-2.0%
Cc1ccc(S(=O)(=O)N2CCCCC2)cc1NC(=O)CSc1ncn[nH]1	·	·	-12.7%	·	?	·	-2.9%
COc1ccccc1OCCCCN1CCN(c2ccccc2OC)CC1	0.6%	1.5%	-7.0%	·	?	-9.7%	-2.8%
O=C(CSc1nc2cc(S(=O)(=O)N3CCOCC3)ccc2o1)Nc1c(F)cccc1F	-0.4%	1.7%	?	-5.6%	3.98µM*	·	i
Cc1ccccc1NC(=O)c1ccc(OCC(=O)Nc2ccccc2F)cc1	-7.3%	-0.3%	-16.5%	-4.7%	-2.1%	3.2%[46 µM]	i
COC(=O)c1ccc(CNC(=O)c2cc3ccccc3oc2=O)cc1	20.9%	-2.1%	4.4%	7.5%	-6.4%	1.7%[46 µM]	i

Arranged by the number under Tau ThT inhib (falling): 3 of the compounds above
structure | SMN2 splice enh | Tau ThT inhib | L3MBTL1 block | ALDH1A1 block | LMNA splice mod | RECQ1 helicase
COC(=O)c1ccc(CNC(=O)c2cc3ccccc3oc2=O)cc1 | 20.9% | 4.4% | 7.5% | -6.4% | 1.7%[46 µM] | i
COc1ccccc1OCCCCN1CCN(c2ccccc2OC)CC1 | 0.6% | -7.0% | · | ? | -9.7% | -2.8%
O=C(Nc1nccs1)c1cn2ccccc2n1 | · | -15.7% | 6.8% | · | · | -2.0%

(cont.)
SMILES	SMN2 splice enh	KinaseGlo FLuc	Tau ThT inhib	L3MBTL1 block	ALDH1A1 block	LMNA splice mod	RECQ1 helicase
COc1ccc(S(=O)(=O)N(CCC(=O)O)Cc2ccccc2)cc1	15.8%	6.0%	-2.4%	-8.2%	?	·	-5.0%
Cc1ccc([N+](=O)[O-])c(OCCN2CCC(Cc3ccccc3)CC2)c1	-2.5%	2.6%	?	-10.5%	31.6µM*	6.6%[46 µM]	0.4%
N/C(=N\OC(=O)c1ccco1)c1cccc(Br)c1	?	10.1%	-22.9%	·	-6.4%	2.0%	i
CCCCN(Cc1ccccc1)C(=O)C1CCN(Cc2sccc2C)CC1	-6.8%	3.1%	-2.9%	4.3%	?	?	-1.6%
CCCNc1ncnc2c1cnn2-c1ccc(OC)cc1	-2.7%	-0.7%	?	-0.1%	3.8%	3.0%	-4.0%
Cn1c(=O)c(C(=O)Nc2cnccn2)c(O)c2ccccc21	12.6µM*	4.1%	2.6%	2.9%	-0.9%	2.7%	i
O=C(CN1CCCCCC1)Nc1ccccc1F	-3.7%	-2.2%	-7.9%	3.5%	?	-8.1%	-3.0%
COc1ccc(/C=C/c2nc(-c3ccccc3O)n[nH]2)cc1OC	?	3.0%	9.6%	-10.8%	-10.0%	?	-11.9%
Cc1cccc(C(=O)N2CCC(=O)N(C(COCc3ccccc3)Cc3ccccc3)CC2)c1 (configuration not stated)	-6.0%	13.9%	-3.1%	6.4%	?	-2.6%	-5.8%
O=C(O)C1CCc2sc3[nH]c(=S)n(-c4ccccc4)c(=O)c3c21 (configuration not stated)	·	·	?	-25.8%	·	·	-4.4%
COc1cc2c(cc1OC)CN(C(=O)CCCOc1ccc(Cl)cc1Cl)CC2	-1.7%	0.2%	?	·	12.8%	-3.7%	i
O=C(NCc1ccco1)C1(S(=O)(=O)c2ccc(Cl)cc2)CC1	-6.9%	-5.2%	-2.2%	1.0%	17.8µM*	-21.0%	i
CCc1ccc(N2C(=O)c3sc4nnc(-c5ccccc5)c(=O)n4c3C2=O)cc1	8.1%	-3.2%	?	·	?	-4.6%	i
COC(=O)c1ccc(OC(=O)c2nn(C)cc2Cl)c(OC)c1	-5.8%	0.8%	-4.0%	1.8%	4.3%	-2.6%	i
S=C(NCc1ccccc1)NNc1nc2ccccc2[nH]1	-9.3%	0.3%	28.2µM*	-20.8%	1.26µM*	-23.3%[46 µM]	i
COCCNC(=S)N1CCN(C(=O)C(=O)Nc2ccc(C(=O)OC)cc2)CC1	-4.1%	0.1%	-12.1%	?	7.0%	-10.0%	-4.7%
COc1ccccc1NC(=O)N(Cc1ccccc1)C1=NCC(C)S1 (configuration not stated)	-5.9%	-3.6%	-25.6%	3.8%	?	10.0%	9.9%
CCOCCCNC(=O)/C(C#N)=C/c1ccc(C(=O)OC)cc1	-16.0%	0.6%	?	·	?	·	i
CCN1CCN(CCOCCOc2ccccc2-c2ccccc2)CC1	-15.4%	0.5%	-5.6%	-2.0%	?	·	i
Cc1ccccc1OCCNC(=O)CSc1ccc(C(F)(F)F)cc1[N+](=O)[O-]	-4.1%	-0.3%	9.8%	-20.8%	12.6µM*	-7.2%	-0.8%
CC(C)CN(C(=O)CN1CCCCCC1)c1c(N)n(CC(C)C)c(=O)[nH]c1=O	5.7%	2.3%	?	·	?	?	3.5%
CNCCCOc1cccc(Oc2ccccc2)c1	·	-2.7%	-1.8%	10.3%	0.9%	·	-11.6%
Cn1c(-c2sc3cc(C(F)(F)F)cnc3c2-c2cccs2)n[nH]c1=S	·	1.8%	-19.6%	-14.4%	?	·	-6.2%
CC(C)COc1ccc(-c2nnc(-c3ccncc3)o2)cc1	19.1%	-4.1%	-10.6%	-2.0%	?	?	i
O=C(/C=C/c1ccco1)N1CCN(C/C=C/c2ccccc2)CC1	-21.8%	-2.3%	-17.2%	-0.4%	12.6µM*	-15.5%	-5.3%
COc1ccc(OCC#CCN2CC(C)OC(C)C2)cc1 (configuration not stated)	11.4%	-1.6%	-6.0%	-5.6%	6.31µM*	0.3%[46 µM]	-4.8%
O=c1[nH]c2ccccc2nc1/C=C/c1ccc(Cl)cc1	·	·	?	·	-1.1%	·	i
Cc1c(NC(=O)c2ccc(N(C)S(C)(=O)=O)cc2)c(=O)n(-c2ccccc2)n1C	18.6%	0.1%	2.4%	2.9%	17.7%	-10.2%[46 µM]	i
CCNc1ccc(S(=O)(=O)N(C)C)cc1NCC(=O)Nc1ccccc1Cl	-6.2%	0.9%	5.3%	-12.5%	8.91µM*	·	-13.4%
COc1ccc(NC(=O)c2cccnc2Nc2ccccc2)cc1	-18.4%	-1.7%	-23.8%	·	-4.9%	-8.8%	-7.2%
CC(C)[C@H](CO)Nc1nc(NCc2ccc(S(N)(=O)=O)cc2)c2ncn(C(C)C)c2n1	·	·	?	·	·	·	-0.3%
COC(=O)N/N=C/c1ccc([N+](=O)[O-])s1	-45.1%[inhibitor]	-2.4%	?	3.4%	-1.0%	?	-10.9%
Cc1ccnc2nc(C(=O)Nc3nc(-c4ccccn4)cs3)nn12	0.6%	-5.7%	?	14.1µM*	-4.7%	?	-26.3%
